Cruzain noTriton: blocks cruzain activity in detergent-free assay. AID 1476. Potency, µM, for inactives: max response, negative = inhibition, usual class: inhibitors. hit rate 2.3% among 200,000. purified cruzain, Z-FR-AMC fluorescence, no detergent. P25779; active = well fitted curve in the direction sought with a large enough effect; inconclusive = small, poorly fitted or top-dose-only effect, or another doubt; inactive = no such curve, though single readings can be large; an effect the other way counts as inactive or inconclusive;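 note: plate controls were enzyme without inhibitor for no effect and buffer without enzyme for full effect; nearly all actives have a fitted effect of over 40% in size; top concentration of the series not given in the record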
Target sequence (P25779 123-467 limits assumed): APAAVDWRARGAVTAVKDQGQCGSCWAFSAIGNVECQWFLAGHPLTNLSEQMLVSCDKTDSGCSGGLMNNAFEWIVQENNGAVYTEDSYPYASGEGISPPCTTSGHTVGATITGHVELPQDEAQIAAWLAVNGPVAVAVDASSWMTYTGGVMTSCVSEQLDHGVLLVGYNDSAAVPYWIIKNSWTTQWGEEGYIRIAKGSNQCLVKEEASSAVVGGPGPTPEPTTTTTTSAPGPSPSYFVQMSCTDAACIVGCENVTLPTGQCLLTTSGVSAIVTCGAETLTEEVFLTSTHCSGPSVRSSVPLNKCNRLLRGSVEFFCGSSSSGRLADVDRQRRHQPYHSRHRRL
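Detergent-free condition (0.00005% Triton X-100) in acetate buffer pH 5.5 with DTT. 1.5 nM enzyme and compound were pre-mixed 15 min, then 2 uM Z-FR-AMC substrate added; reaction progress from fluorescence change between first and third reads (60 s).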
MARV entry inh: inhibitors of Marburg virus binding or cell entry; hit rate 1.8% among 300,000; Marburg virus pseudotyped entry inhibition, cell reporter; control for the full effect not named in the record; about a third of the inactives were read at about 46 µM; Potency, µM (highest dose often 37.8 µM), for the others: at the highest dose activity change, negative = inhibition, most hits filed as inhibitors; AID 540276; active = well fitted inhibition curve with a large enough effect; inconclusive = small, poorly fitted or top-dose-only effect, or effect the other way; inactive = flat fitted curve, though single readings scatter; tested in HEK293 cells; about a fifth of its hits are not listed in these tables; note: % is set by controls: 0 for no effect and ±100 for the full control effect; luciferase read-out
RE007 growth inh: less growth of the S. pombe RE007 Vpr strain; S. pombe RE007 Vpr strain, BacTiter-Glo ATP luminescence, 24 h; control for the full effect not named in the record; Potency, µM (highest dose often 92.2 µM), for inactives: at the top dose activity change, negative = less growth; hit rate 0.21% among 360,000; AID 651644; active = well fitted falling curve with a large enough effect; inconclusive = small, poorly fitted or top-dose-only effect; inactive = no such curve, though single readings can be large or run the other way;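 note: % is set by controls: 0 for no effect and ±100 for the full control effect; nearly all actives have a fitted effect of over 50% in size; the assay follows cell death caused by Vpr and the record does not say whether a fall means rescue or toxicity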
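Fission yeast RE007 carrying one integrated HIV-1 vpr copy, seeded at OD 0.01 in PMG+AL medium with 23 nL pinned compound. Grown 24 h at 30 degrees; viability read by BacTiter-Glo luminescence after 5 min.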
NS1 inh: influenza NS1 inhibition | S. cerevisiae slowed by influenza A NS1, growth recovery by OD600 | Potency, µM (highest dose often 46.1 µM), inactives show at the highest dose activity, positive = more growth | hit rate 0.4% among 270,000; note: actives are rising curves; nearly all actives have a fitted effect of over 50% in size
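Read-out: OD600 growth recovery of NS1-expressing budding yeast. Cells grown overnight at 30C in -URA glucose medium, washed, resuspended and diluted 1:100 in 2% galactose assay medium, pH 6.0. Same strain lacking NS1 served as positive control.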
SARS PLpro yeast: blocks SARS-CoV papain-like protease in a yeast assay; S. cerevisiae expressing SARS-CoV PLpro, growth rescue; control for the full effect not named in the record; hit rate 0.19% among 330,000; AID 485353; Potency, µM (top dose mostly 32.9 µM), for inactives: at the top dose activity, positive = growth rescue; note: 0% is about no effect; nearly all actives have a fitted effect of over 55% in size; growth read by luminescence after 48 h
2A StopGo: lowers the luciferase signal of an FMDV 2A StopGo reporter; hit rate 1.2% among 410,000; human cells with a luciferase reporter of 2A StopGo recoding; control for the full effect not named in the record; AID 1159524; Potency, µM (highest dose often 57.9 µM), for inactives: at the top dose signal change, negative = less light; active = well fitted falling curve with a large enough effect; inconclusive = small, poorly fitted or top-dose-only effect; inactive = no such curve, though single readings can be large or run the other way; tested in HEK293T cells; note: % is set by controls: 0 for no effect and ±100 for the full control effect; nearly all actives have a fitted effect of over 45% in size; luciferase light after 4 h
Lassa entry inh: inhibitors of Lassa virus binding or cell entry; Lassa virus pseudotype entry inhibition, cell reporter; control for the full effect not named in the record; AID 540256; hit rate 1.2% among 300,000; Potency, µM (highest dose often 37.9 µM), inactives show top-dose activity change, negative = inhibition, hits mostly inhibitors; active means well fitted inhibition curve with a large enough effect; inconclusive means small, poorly fitted or top-dose-only effect, or effect the other way; inactive means flat fitted curve, though single readings scatter; tested in HEK293 cells; note: % is set by controls: 0 for no effect and ±100 for the full control effect; nearly all actives have a fitted effect of over 50% in size; luciferase read-out
Cruzain inh Det: inhibitors of Trypanosoma cruzi cruzain with detergent | P25779 | purified cruzain, Z-FR-AMC fluorescence, 0.01% Triton | Potency, µM, without a hit: max response, negative = inhibition, actives largely listed as inhibitors | hit rate 0.43% among 200,000 | AID 1478; active = well fitted curve in the direction sought with a large enough effect; inconclusive = small, poorly fitted or top-dose-only effect, or another doubt; inactive = no such curve, though single readings can be large; an effect the other way counts as inactive or inconclusive;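 note: plate controls were neutral wells for no effect and buffer without enzyme for full effect; nearly all actives have a fitted effect of over 40% in size; top concentration of the series not given in the record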
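Enzyme 1.5 nM, Z-FR-AMC 2 uM, NaOAc 100 mM pH 5.5, DTT 5 mM, Triton X-100 0.01%; 15 min RT compound preincubation; kinetic ex360/em450, 60 s delta.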
* hit, by the source's call; u = inconclusive; x = not tested or not shown; [ ] = another dose, or the depositor's remark. Unless noted, calls come from the whole dose curve; as a rule, active means well fitted rising curve with a large enough effect; inconclusive means small, poorly fitted or top-dose-only effect; inactive means no such curve, though single readings can be large or run the other way. Potency is the fitted concentration of half-maximal effect.

compound | Cruzain noTriton | MARV entry inh | RE007 growth inh | NS1 inh | SARS PLpro yeast | 2A StopGo | Lassa entry inh | Cruzain inh Det
COC(=O)C1=C(C(=O)OC)[C@@H]2Nc3ccccc3[C@@]23C[C@@H](C(=O)OC)N(C(=O)c2ccc(Br)cc2)C3=N1 | x | x | 6% | u | 1% | -22% | x | x
O=C(NNC(=S)Nc1ccccc1Cl)C1CC1 | 2% | 14% | 1% | 4% | 17% | -3% | 16% | 0.0%
CCCCOCCCNC(=O)CC(C)c1ccccc1 (stereo not given) | 8% | 21% | 13% | -11% | -1% | -24% | 5% | 1.0%
CC(C)(C)c1ccc(C(=O)Nc2ccc3c(c2)CCCN3C(=O)c2cccs2)cc1 | u | x | x | x | x | u | u | -4.1%
C/C(CCc1ccccc1)=N/NC(=O)C(=O)NCc1ccccc1 | x | x | 5% | 7% | 0% | 2% | x | x
O=C(Cn1c(=O)oc2ccccc21)Nc1ccccc1C(F)(F)F | x | 2%[46.1 µM] | 1% | -3% | 1% | -12% | -12%[46.1 µM] | x
COc1ccccc1NC(=O)CN(C)S(=O)(=O)c1ccc2c(c1)CCC(=O)N2 | 5% | x | -12% | 0% | -3% | -21% | x | -1.7%
COc1ccc(S(=O)(=O)N(CCc2ccccc2)CC(=O)NCc2ccccc2)cc1 | 0% | x | x | x | x | 53%[activator] | u | -6.5%
COc1ccc(/C=C/c2nc(C#N)c(N3CCCCCC3)o2)cc1OC | u | -18%[46.1 µM] | x | x | x | -2% | -22%[46.1 µM] | -3.8%
CN(CC(=O)Nc1cccc(F)c1)C(=O)C1=COCCO1 | x | -7%[46.1 µM] | -15% | x | 4% | -10% | -8% | x
COc1cccc(C(=O)NNC(=O)c2ccccc2-n2cccc2)c1 | x | 0%[46.1 µM] | 1% | x | 0% | 9% | -5% | x
CCOc1ccccc1N1CCN(Cc2cn[nH]c2-c2ccc(F)cc2)CC1 | x | u | 3% | 0% | 0% | -28% | -1%[46.1 µM] | x
COc1ccccc1N1CCN(/N=C\c2ccc(C)o2)CC1 | 4% | -3% | u | -2% | -9% | 41%[activator] | 2% | 1.7%
N#C/C(=C\c1c(Cl)cccc1Cl)c1nn(-c2ccccc2)c(-n2cccc2)c1C#N | x | u | -8% | 5% | 2% | u | -17%[46.1 µM] | x
Cc1ccc(N(CN2CCCC2=O)C(=O)c2ccc(OC(C)C)cc2)cc1 | 29% | -23% | -22% | 3% | -4% | 3% | u | -3.1%
COC(=O)CNC(=O)CN1C(=O)N(c2ccc(Cl)cc2)C(N(O)C(=O)Nc2ccc(Cl)cc2)C1(C)C (stereo not given) | u | 0% | 5% | 2% | -1% | -14% | 14% | -2.7%
Cc1ccc(C(=O)Nc2ccc(N3CCOCC3)nc2)cc1 | 4% | 3% | -2% | -13% | 4% | 19% | 14% | 0.3%
COCCCNC(=O)C1CCC(CNS(=O)(=O)c2ccc3c(c2)CC(C)N3C(=O)C2CC2)CC1 (stereo not given) | x | u | -5% | -18% | 0% | 3% | 4%[46.1 µM] | x
CCNC(=O)COC(=O)CCC(=O)c1ccc(F)cc1 | x | 7%[46.1 µM] | -18% | 10% | 1% | -6% | 14%[46.1 µM] | x
COc1ccc(CCCc2nnc(SCC(=O)Nc3ccc(F)cc3)o2)cc1C | -4% | -1%[46.1 µM] | x | x | x | -17% | 3%[46.1 µM] | 0.1%
NC(=O)c1cnn(-c2ccc3ccccc3c2)c1N | x | 4%[46.1 µM] | 1% | x | 1% | 44%[activator] | 26% | x
CC1=C(C(=O)OCc2ccccc2)C(c2ccc(-c3ccccc3)cc2)NC(=O)N1CCCCCC(=O)O (stereo not given) | u | 10% | 1% | u | -9% | -19% | u | u
Cc1ccc(S(=O)(=O)NC2=NCN(C3CCN(Cc4ccccc4)CC3)CN2)cc1 | -5% | 6% | 9% | -4% | 3% | -3% | -23% | 3.6%
CC(C)(C)S(=O)(=O)/C(C#N)=C/Nc1ccccn1 | x | -11%[46.1 µM] | 1% | 0% | -1% | 2% | -28%[46.1 µM] | x
Cc1nn(Cc2ccc(F)cc2)c(C)c1NC(=O)c1cc(-c2ccc3c(c2)OCO3)on1 | u | -20% | 9% | -11% | 7% | -16% | u | 1.9%
CN(Cc1ccccc1)S(=O)(=O)c1ccc2c(c1)NC(=O)CC(=O)N2 | 1% | 16% | 14% | -2% | -1% | -28% | -16% | -0.6%
Cc1cc(=O)n2c(-c3ccc(Cl)cc3)csc2n1 | x | 10%[46.1 µM] | 20% | 4% | -3% | -7% | -7% | x
COCCCn1c(SCC(=O)OC2CCCCC2)nnc1-c1cccs1 | 8% | u | -2% | -10% | 2% | 19% | 6% | -2.9%
CCOc1cc(C(=O)N=c2sccn2C)cc(Br)c1OC | x | x | -15% | -11% | -10% | -28% | x | x
CCCCN(CCCC)C(=S)N/N=C/c1c(C)[nH]n(-c2ccccc2)c1=O | -27% | u | -29% | -59% | 5% | -24% | u | -2.8%

Gathered by group, the compounds so far containing a thiophene ring, fused or not
compound | Cruzain noTriton | MARV entry inh | RE007 growth inh | NS1 inh | SARS PLpro yeast | 2A StopGo | Lassa entry inh | Cruzain inh Det
CC(C)(C)c1ccc(C(=O)Nc2ccc3c(c2)CCCN3C(=O)c2cccs2)cc1 | u | x | x | x | x | u | u | -4.1%
COCCCn1c(SCC(=O)OC2CCCCC2)nnc1-c1cccs1 | 8% | u | -2% | -10% | 2% | 19% | 6% | -2.9%

Later entries:
compound | Cruzain noTriton | MARV entry inh | RE007 growth inh | NS1 inh | SARS PLpro yeast | 2A StopGo | Lassa entry inh | Cruzain inh Det
CCC(O)C1CCN(C(=O)c2ccc(OC3CCN(Cc4ccccn4)CC3)cc2)CC1 (stereo not given) | x | x | -9% | 2% | -3% | 22% | x | x
CN(Cc1ccccc1F)C(=O)C(Cc1ccccc1)NC(=O)c1ccccc1 (stereo not given) | x | -43% | -5% | x | 5% | -5% | -12%[46.1 µM] | x
O=C(CN1CCC(Cc2ccccc2)CC1)NC(=O)NCc1ccco1 | 12% | u | -19% | -3% | u | -3% | 8% | 3.2%
Cc1ccc(C)n1-c1c(C(=O)NCCC(C)C)sc2ncccc12 | 1% | x | x | x | x | -11% | -6%[46.1 µM] | -10%
CC[C@]1(C(=O)OC)[C@H]2C(=O)N(Cc3ccccc3)C(=O)[C@H]2[C@H]2CN=C(SCc3ccccc3)N21 | x | 0% | -8% | x | 4% | -21% | x | x
CC(=O)O/N=C(/C)c1ncc(C(F)(F)F)cc1N1CCOCC1 | -2% | 3%[46.1 µM] | 18% | 3% | 6% | 11% | 0% | 3.0%
c1ccc(C[n+]2c(-c3ccccc3)csc2Nc2ccccc2)cc1 | 4% | 19% | 1% | -6% | -3% | -27% | 8% | -3.3%
Cn1cc(CN2CCC(C(O)c3cccs3)CC2)c(-c2ccccc2F)n1 (stereo not given) | x | u | -13% | -2% | 0% | 14% | -3% | x
Cc1ccc(C)c(NC(=S)NNC(=O)c2ccc(Br)o2)c1 | 5% | x | 10% | 25% | u | 37%[activator] | x | 4.5%
FC(F)Sc1ccc(NC(=S)N2CCN(c3ccccn3)CC2)cc1 | x | u | u | -8% | -3% | -8% | x | x
Cc1ccc(C(=O)NNc2ncnc3ccccc23)cc1 | x | u | 10% | -16% | 5% | 7% | u | x
Cc1ccc(NC(=S)N(CCCN2CCN(C)CC2)Cc2cccs2)cc1 | x | u | -1% | x | 0% | -3% | u | x
Cc1cccc(C)c1N1C(=O)CC(N(O)c2ccccc2)C1=O (stereo not given) | -6% | -14% | 4% | -3% | -4% | -18% | 1% | 2.4%
Fc1ccc(CSc2nnc(CN3CCOCC3)n2-c2ccccc2)c(Cl)c1 | 28% | u | 4% | -4% | -7% | -14% | -18% | -0.2%
CCCC1=Nc2cc(C(=O)NCCCOC(C)C)ccc2Sc2ccccc21 | u | u | 3% | 18% | -1% | -16% | 6.5µM* | -9.5%
COc1ccc(OC)c(NC(=O)C2CCCN(S(C)(=O)=O)C2)c1 (stereo not given) | x | x | -3% | 5% | 4% | -8% | x | x
O=C(NCCCn1cccn1)C1CCC(=O)N(Cc2ccccc2F)C1 (stereo not given) | x | x | 5% | 2% | 3% | 2% | x | x
Cn1cc(SCC(=O)Nc2ccc3c(c2)OCO3)c2ccccc21 | -17% | x | -14% | -81% | -8% | 8% | x | -5.9%
O=C(CSc1nc(=O)[nH]c2c1CCC2)NCc1ccccc1 | -4% | x | x | x | x | -7% | -8%[46.1 µM] | 0.1%
O=C(c1cc2ccccc2o1)N1CCN(CCOc2ccccc2)CC1 | x | 7% | -16% | x | -1% | -21% | -1% | x
COC(CNC(=O)c1coc2nc3ccccc3nc12)OC | x | x | 14% | -5% | -2% | 12% | x | x
O=C(NCc1cccc(Cl)c1)C1CCCO1 (stereo not given) | x | u | 14% | x | 0% | 4% | 7% | x
COc1cc(/C=C2\OC(=O)c3c(OC)cccc32)ccc1O | u | 15%[46.1 µM] | -12% | -22% | 23% | 23% | -9% | -9.3%
O=[N+]([O-])c1ccc(C(=S)N2CCC(Cc3ccccc3)CC2)cc1 | u | u | 5% | 14% | 12% | -9% | -6% | -6.9%
O=C(CC(=O)N/N=C/c1ccccc1)NCc1ccccc1 | x | -5%[46.1 µM] | 3% | 10% | 0% | -8% | 10%[46.1 µM] | x

Some of the entries above, set out differently:
> Cn1cc(SCC(=O)Nc2ccc3c(c2)OCO3)c2ccccc21
  Cruzain noTriton = -17%
  MARV entry inh = x
  RE007 growth inh = -14%
  NS1 inh = -81%
  SARS PLpro yeast = -8%
  2A StopGo = 8%
  Lassa entry inh = x
  Cruzain inh Det = -5.9%

> O=C(CSc1nc(=O)[nH]c2c1CCC2)NCc1ccccc1
  Cruzain noTriton = -4%
  MARV entry inh = x
  RE007 growth inh = x
  NS1 inh = x
  SARS PLpro yeast = x
  2A StopGo = -7%
  Lassa entry inh = -8%[46.1 µM]
  Cruzain inh Det = 0.1%
